# Screening data as filed in PubChem.
# OX1R antag-1 = OX1R (HCRTR1) antagonists, primary screen, fluorescence, CHO/OX1R cells, Fluo-8 calcium, orexin A | Fluo-8 calcium fluorescence | inhibition, % at 5 µM | actives 0.43% (n = 330,000) | AID 434989, 2010;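 active = inhibition above its plate's threshold, mean inhibition of all tested compounds on the plate plus 3 SD, cut at about 37% in these data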;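 also: 0% = orexin A challenge wells and 100% = SB-334867-A antagonist wells; not every result past the cut was called active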
# Target sequence (O43613 whole entry, looked up): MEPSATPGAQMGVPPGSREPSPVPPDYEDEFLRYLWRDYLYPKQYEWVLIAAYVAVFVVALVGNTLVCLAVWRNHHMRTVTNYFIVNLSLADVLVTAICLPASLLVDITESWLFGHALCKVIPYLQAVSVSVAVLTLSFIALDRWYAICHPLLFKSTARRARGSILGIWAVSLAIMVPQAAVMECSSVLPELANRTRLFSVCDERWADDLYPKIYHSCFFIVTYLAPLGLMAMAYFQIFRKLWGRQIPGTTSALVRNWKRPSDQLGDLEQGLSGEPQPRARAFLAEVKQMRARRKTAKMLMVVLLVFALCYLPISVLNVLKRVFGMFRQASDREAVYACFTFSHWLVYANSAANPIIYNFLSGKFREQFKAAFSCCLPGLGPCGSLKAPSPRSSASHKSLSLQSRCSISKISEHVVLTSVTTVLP
# OX1R antag-2 = antagonists of human orexin 1 receptor (OX1R); Orexin/Hypocretin receptor type 1 (Homo sapiens), O43613; OX1R-expressing cells, FRET antagonist read-out; inhibition, % at 6.6 µM; actives 1.8% (n = 330,000); AID 485270, 2010; in the data active = inhibition mostly above about 38%, no sharp cut-off; inactive = mostly below about 40%;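 also: 0% = agonist challenge alone and 100% = reference antagonist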
# * hit, by the source's call. An excerpt; most or all hits stand in other tables.
OX1R antag-1,OX1R antag-2,structure
-19.4,44.5,Cc1nc(/N=C(\N)NC(=O)N2c3ccccc3Sc3ccccc32)nc2ccccc12
-15.1,7.3,O=C(N/C(=C/c1ccc(Br)cc1)C(=O)N1CCOCC1)c1ccc(Br)o1
-11.2,-3.5,COc1ccc(CNC(=O)C2CCN(S(=O)(=O)c3ccc4c(c3)NC(=O)C(C)S4)CC2)cc1 (stereo not given)
7.2,7.8,O=C(Nc1ccc(-c2nc3ccccc3[nH]2)cc1)c1ccc(N2C(=O)CCC2=O)cc1
-12.0,33.0,CCOC(=O)N1CCN(C(=O)c2nc3ccccc3s2)CC1
-4.4,13.5,Cc1c(C(=O)N/N=C/c2ccc(N3CCOCC3)cc2)nc2ccccn12
35.4,18.9,CCc1ccc(NC(=O)Nc2cccs2)cc1
10.3,42.4,COc1ccc(/C=N/N2C(=O)CSC2=S)cc1Br
-9.4,1.1,COc1ccccc1NC(=O)CN1CCN(c2ccccn2)CC1
-23.6,0.2,Cc1ccc(NS(=O)(=O)c2ccc(CCC(=O)NCc3ccccn3)cc2)cc1
-18.3,4.8,NC(=O)c1c(NC(=O)Cn2nc(C(=O)O)c3ccccc3c2=O)sc2c1CCC2
-39.2,48.4,Fc1ccc(/C=N/NC2=Nc3cccc4cccc2c34)cc1
-15.7,8.0,COc1cc(C(=O)Nc2ccc3c(c2)Cc2cc(NC(=O)c4cc(OC)c(OC)c(OC)c4)ccc2-3)cc(OC)c1OC
-10.6,12.8,O=C(NCc1cccnc1)c1ccc(NS(=O)(=O)c2ccc(F)cc2)cc1
-12.3,5.5,O=C(CSc1nnc(-c2ccccc2)o1)Nn1cnnc1
-2.1,16.8,CS(=O)(=O)N1CCN(S(=O)(=O)c2ccccc2[N+](=O)[O-])CC1
-10.4,9.8,CCc1oc2c(C)c(O)ccc2c(=O)c1-c1ccc2ccccc2n1
5.3,13.9,O=C(NCC1CCCO1)Nc1cccc(Cl)c1 (stereo not given)
-11.3,11.0,C=CCC1S/C(=N/N=C/c2cccs2)NC1=O (stereo not given)
-22.4,15.9,O=C(CC(=O)N/N=C\c1ccc(F)cc1)NCCc1ccccc1
-7.0,16.1,O=C(N/N=C/c1ccco1)c1cccc(S(=O)(=O)Nc2ccccc2Cl)c1
-6.5,9.7,COc1ccccc1CNC(=O)N1CCN(c2ccccc2)CC1
-8.3,21.1,O=C(CS(=O)(=O)Cc1ccccc1)N1CCc2ccccc21
-23.7,22.6,O=C(CCc1ccccc1)Nc1cccc([N+](=O)[O-])c1
21.7,1.5,COc1ccc2c(c1)C(C)(CCN)C(=O)N2C (stereo not given)
-9.8,14.6,COC(=O)c1ccc2c(=O)n(-c3ccccc3)c(SCN3C(=O)c4ccccc4C3=O)nc2c1
-22.0,23.8,COc1ccc(OC)c(C(=O)COC(=O)c2cccnc2Cl)c1
24.1,49.5,COc1ccc(S(=O)(=O)Nc2ccc3oc(C)c(C(C)=O)c3c2)cc1
-35.1,39.7,CN(C)c1nc(NCc2ccccc2)nc(N/N=C/c2ccc(Cl)cc2Cl)n1
-22.3,45.3,O=S(=O)(c1ccccc1)N1CCN=C1SCc1c(F)cccc1Cl
5.7,9.7,COc1ccc(S(=O)(=O)Nc2nnc(C)s2)cc1
2.3,5.4,Cc1c(Cl)c(C(=O)NNC(=S)Nc2ccc(F)cc2)nn1C
-5.2,4.6,CCOc1ccccc1Nc1nnc(SCC(=O)Nc2ccc3[nH]c(=O)[nH]c3c2)s1
-17.6,13.0,Cc1ccc(-n2cc(CN3CCNC(=O)CC3)c(-c3ccc(F)cc3)n2)cc1
-10.7,-4.4,O=C(NCCN1CCOCC1)c1ccc(CS(=O)(=O)c2ccc(Br)cc2)o1
-26.4,14.8,O=C(Nc1ccc(F)cc1F)c1ccc(COc2c(F)c(F)cc(F)c2F)o1
-3.5,14.9,Cc1nc2ccc(S(=O)(=O)NCC(=O)N3CCCCC3)cc2s1
-17.1,11.4,CC(C)(C)c1ccc(N2C(=O)CC(C/C=C/c3ccccc3)C2=O)cc1 (stereo not given)
-10.9,10.3,CC(=O)N1CCc2ccc(S(=O)(=O)N3CC(C)OC(C)C3)cc21 (stereo not given)
0.1,33.3,COc1ccc(OC)c(NC(=O)c2ccno2)c1
-33.7,10.2,COCCCN1CC(=O)N2C(c3cccc(OC)c3OC)c3[nH]c4ccccc4c3C[C@H]2C1=O (stereo not given in full)
-8.4,24.3,CC12CCC(C(=O)O)(c3nc(C#N)c(C#N)nc31)C2(C)C (stereo not given)
-19.6,32.1,Cc1cc(C(=O)NCC2COc3ccccc3O2)c2ccccc2n1 (stereo not given)
-15.1,6.6,CCN(CC)C(=O)Cn1cc(S(=O)(=O)CC(=O)Nc2cc(C)on2)c2ccccc21
-6.5,14.6,Cc1cc(C)cc(Oc2coc3cc(OC(=O)c4cccs4)ccc3c2=O)c1
10.8,16.6,Nc1ncnc2c1nc(Br)n2[C@@H]1O[C@@H]2COP(=O)(O)O[C@H]2[C@H]1O
-18.3,9.8,CCC(C)c1ccccc1OCCCNC1CCCC1 (stereo not given)
-10.6,3.1,O=C(NCc1cccnc1)c1ccc(=O)oc1
-3.3,19.5,O=C(O)c1c[nH]c2ccc(F)cc2c1=O
-14.9,24.4,C=CCNC(=O)c1ccc(N(CC=C)S(C)(=O)=O)cc1

# Next section:
OX1R antag-1,OX1R antag-2,structure
-26.0,21.7,O=C(CCCOc1ccc(Cl)cc1Cl)Nc1nnc(C2CC2)s1
-48.2,7.3,CCCn1c(=N)n(CC(=O)c2ccc(Cl)c(Cl)c2)c2ccccc21
-20.9,13.0,CCC(C)(C)n1nnnc1C(c1ccccn1)N1CCN(c2cccc(OC)c2)CC1 (stereo not given)
0.3,-3.9,CC1CN(C2CCN(S(=O)(=O)c3ccc(F)cc3)CC2)CC(C)O1 (stereo not given)
-20.0,11.8,CC1(NC(=O)Nc2cccc3ccccc23)CCS(=O)(=O)C1 (stereo not given)
-24.6,27.4,COc1ccc(/C=C(/NC(=O)c2ccco2)C(=O)Nc2ccc(C(C)=O)cc2)cc1
-13.4,0.4,O=C1C2CCCN2C(=S)N1c1ccc(Cl)cc1 (stereo not given)
-14.1,11.9,Cc1cc(C)c(C)c(S(=O)(=O)N2CCNCC2)c1C
-3.2,5.5,N#CCC(=O)Nc1ccc(C(F)(F)F)cc1N1CCOCC1
-8.1,8.8,COC(=O)C1=NN(C(C)=O)C2(CC(=O)N(c3cc(C)cc(C)c3)C2=O)C1 (stereo not given)
-7.8,16.3,CC(=O)NCCc1ccc(S(=O)(=O)N2CCCC2)cc1
-13.5,12.5,Cc1cc(C(=O)O)ccc1-c1ccc(CO)o1
-26.3,12.3,Cc1nc2ccc(NC(=O)c3sccc3C)cc2s1
-22.6,22.6,Cc1nn(-c2ccccc2)c(NC(=O)c2ccccc2)c1Br
-20.4,20.9,CC1CCC(NC(=O)COc2ccc(C(=O)c3ccccc3)cc2)CC1 (stereo not given)
-15.5,22.0,Cc1nnc(SCc2ccccc2C#N)n1-c1ccccc1
-3.8,5.4,CCc1cc(=O)oc2cc(OCC(=O)N3CCC[C@H]3C(=O)O)ccc12
-9.4,-0.9,CC(OC(=O)CNC(=O)c1ccc2c(c1)OCO2)C(=O)NCCC1=CCCCC1 (stereo not given)
-31.0,49.0,CCO/C(C)=N/n1c2nc3ccccc3nc2c2c(=O)n(Cc3ccccc3Cl)c(C)nc21
-18.0,14.8,COC(=O)c1ccc(NC(=O)CCS(=O)(=O)c2ccc(Br)cc2)cc1

# The final 7 compounds of the part above open the next one.
OX1R antag-1,OX1R antag-2,structure
-22.6,22.6,Cc1nn(-c2ccccc2)c(NC(=O)c2ccccc2)c1Br
-20.4,20.9,CC1CCC(NC(=O)COc2ccc(C(=O)c3ccccc3)cc2)CC1 (stereo not given)
-15.5,22.0,Cc1nnc(SCc2ccccc2C#N)n1-c1ccccc1
-3.8,5.4,CCc1cc(=O)oc2cc(OCC(=O)N3CCC[C@H]3C(=O)O)ccc12
-9.4,-0.9,CC(OC(=O)CNC(=O)c1ccc2c(c1)OCO2)C(=O)NCCC1=CCCCC1 (stereo not given)
-31.0,49.0,CCO/C(C)=N/n1c2nc3ccccc3nc2c2c(=O)n(Cc3ccccc3Cl)c(C)nc21
-18.0,14.8,COC(=O)c1ccc(NC(=O)CCS(=O)(=O)c2ccc(Br)cc2)cc1
-8.4,9.7,COC(=O)N1C(=O)[C@](Cc2ccccc2)(c2ccccc2)N1C(=O)OC
-30.6,13.9,COc1ccc(-c2noc(CCC(=O)Nc3cc(OC)ccc3OC)n2)cc1
-19.2,44.7,CC1CCN(C(=O)COC(=O)c2cc([N+](=O)[O-])ccc2N2CCOCC2)CC1
-33.7,14.6,CC(OC(=O)CCc1nc2ccccc2c(=O)[nH]1)C(=O)Nc1ncc(Cl)cc1Cl (stereo not given)
-3.0,6.3,CCC(=O)Nc1ccc(C=C(C(C)=O)C(C)=O)cc1
-10.6,6.0,CC(C)OC(=O)c1ccc(NC(=O)c2ccco2)cc1
-37.3,12.7,CCOc1ccc(N2C(=O)CC(N3CCN(C4CCc5ccccc5C4)CC3)C2=O)cc1 (stereo not given)
-21.7,27.4,COc1cc2ccccc2cc1C(=O)Nc1sc2c(c1C(N)=O)CCN(C(C)C)C2
-13.1,-0.4,CC1CN(C(=O)CSc2nnc(-c3ccc(Cl)cc3)n2C)CC(C)O1 (stereo not given)
-12.7,4.6,O=P1(Nn2cnnc2)C=C(c2ccccc2)OC(c2ccccc2)=C1

# A stretch from further up, for reference:
OX1R antag-1,OX1R antag-2,structure
-3.0,6.3,CCC(=O)Nc1ccc(C=C(C(C)=O)C(C)=O)cc1
-10.6,6.0,CC(C)OC(=O)c1ccc(NC(=O)c2ccco2)cc1
-37.3,12.7,CCOc1ccc(N2C(=O)CC(N3CCN(C4CCc5ccccc5C4)CC3)C2=O)cc1 (stereo not given)
-21.7,27.4,COc1cc2ccccc2cc1C(=O)Nc1sc2c(c1C(N)=O)CCN(C(C)C)C2
-13.1,-0.4,CC1CN(C(=O)CSc2nnc(-c3ccc(Cl)cc3)n2C)CC(C)O1 (stereo not given)

# Remaining list, next part.
OX1R antag-1,OX1R antag-2,structure
-14.4,37.2,C/C(=N/NC(=O)c1ccc2c(c1)OCO2)c1cccc(NC(=O)C(C)(C)C)c1
-16.7,15.6,COc1cccc(CNC(=O)CCNS(=O)(=O)c2cccc3nonc23)c1
0.2,16.5,Cc1cc(S(=O)(=O)N2CCCC2)ccc1OCC(=O)N1CCCCC1
-3.8,45.4,Cc1ccc(O)c(CNc2cccc3cccnc23)c1
-2.8,6.1,COC(=O)C1=C(N)c2c(F)cccc2C1(C#N)c1ccc(F)cc1 (stereo not given)
1.3,4.0,CCCN1CCC(NC23CC4CC(CC(C4)C2)C3)CC1
4.9,6.7,CCOC(=O)c1ccc(NC(=S)NCc2ccc(S(N)(=O)=O)cc2)cc1
0.5,0.7,CC(=O)N1CCCc2cc(S(=O)(=O)N(C)CCC#N)ccc21
-17.9,34.1,COC(=O)C(C(=O)OC)C(C[N+](=O)[O-])c1ccc(OC)cc1 (stereo not given)
-3.8,10.4,NC(=O)CSc1c[nH]c2ccccc12
4.3,8.0,CN1CCC(NC(=O)c2cccc(Oc3ccccc3)c2)CC1
0.5,31.6,COC(=O)/C=C1/SC(=Nc2ccc(C)cc2C)NC1=O
-22.7,3.2,O=C(CSc1nnc(SCc2ccc(Cl)cc2)s1)N/N=C/c1ccc(Cl)cc1Cl
-3.8,-2.1,CCNc1nc(NCC)n2c(SCc3ccc(F)cc3)nnc2n1
-26.1,4.9,Clc1cccc(CN2C3=NCCCN3c3ccccc32)c1
-1.5,5.3,Cc1ccc(-c2cc(C(=O)NCc3ccco3)no2)cc1
-16.1,11.3,CC(C)=CCC/C(C)=C/CN(CC(C)O)CC(C)O (stereo not given)
-16.9,30.2,CCCCC(=O)N/N=C/c1cc([N+](=O)[O-])ccc1N1CCOCC1
16.6,0.3,CN(C)S(=O)(=O)N1CCN(C(=O)c2ccccc2Cl)CC1
-28.4,27.3,COc1cc(C(c2nnnn2C(C)(C)C)N2CCN(c3nc4ccccc4s3)CC2)ccc1O (stereo not given)
-29.1,15.8,CCOC(=O)c1ccccc1NC(=S)N1CCCCC1
-20.2,27.7,CCN(CC)C(=O)C12CC3CC(CC(Br)(C3)C1)C2
-11.5,11.2,O=C1CC2(CCCCC2)Oc2ccc(O)cc21
-29.9,0.3,COC(CNC(=O)CNC(=S)N(Cc1ccccc1)Cc1cccs1)OC
-7.7,0.5,Cc1ccc(NC(=O)C2COc3ccccc3O2)cc1C (stereo not given)
-0.2,20.1,Cc1c(/C(O)=C2\C(=O)C(=O)N(CCN(C)C)C2c2ccco2)cnn1-c1ccccc1 (stereo not given)
-2.0,7.8,Cc1ccc(-c2nc3ccccc3[nH]2)cc1N
-5.4,22.4,Cc1ccc(S(=O)(=O)NCc2cccnc2)s1
-32.4,29.4,CCCCSc1nnc(-c2ccccc2N)c(=O)[nH]1
-4.3,15.6,CC1(C)CC(CC(=O)Nc2nccs2)(c2ccccc2)CCO1 (stereo not given)
-28.8,21.7,COc1ccc(Nc2oc(-c3ccc(Cl)cc3)nc2C#N)cc1
-9.0,10.8,Cc1ccc2c(c1)N(Cc1cccc(C#N)c1)C=NS2(=O)=O
-8.2,28.5,CCC(Oc1ccccc1)C(=O)Nc1ccc(S(=O)(=O)Nc2cnc3ccccc3n2)cc1 (stereo not given)
-41.6,20.1,COc1ccccc1N1CCN(Cc2cc3c(cc2Br)OCCO3)CC1
-6.6,7.3,CC(=O)C1=C(C)NC(SCC(N)=O)=C(C#N)C1c1sccc1C (stereo not given)
-24.2,18.4,COc1ccc(Cl)cc1NC(=O)CN(C)S(=O)(=O)c1cccs1
-13.5,11.0,CCOc1ccccc1N(C(=O)Nc1ccc(Cl)cc1)C1=NCCS1
-22.9,10.7,O=C(Nc1ccc(N2CCN(Cc3ccccc3)CC2)cc1)c1ccco1
